gsp antag: gsp mutant antagonism; Potency, µM (titrated, usually from 76.9 µM), without a hit: at the top dose activity change, negative = inhibition, most hits filed as inhibitors; gsp-mutant cells, cAMP HTRF, 30 min; control for the full effect not named in the record; AID 624288; 340,000 tested, 0.4% active; active = falling curve of any shape with a large fitted effect; inconclusive = falling curve, mostly with a smaller effect; inactive = flat or rising curve; cell line not stated here;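 also: intracellular cAMP measured with PDE inhibitor Ro 20-1724 present during compound exposure; potency is read from the fitted curve at half-maximal effect; % is scaled to controls: 0 for no effect and ±100 for the full control effect; nearly all actives have a fitted effect of over 65% in size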
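Cells in G418 medium, seeded 16-24 h, 37C; buffer exchange to DPBS + 1 mM CaCl2, 0.5 mM MgCl2, 0.05% BSA; cpds in DMSO + […] (300 uM stock), 30 min 37C; HTRF cAMP detection.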
Sfp PPTase inh: inhibitors of Bacillus subtilis Sfp phosphopantetheinyl transferase. Potency, µM, for the others: max response, negative = inhibition, hits mostly inhibitors. 310,000 tested, 3.5% active. AID 1490. Q9F4F7. Biochemical Sfp PPTase activity, qHTS; active = well fitted inhibition curve with a large enough effect; inconclusive = small, poorly fitted or top-dose-only effect, or another doubt; inactive = no such curve, though single readings can be large or run the other way;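 also: the enzyme is Sfp with the accession as filed and its product quenches rhodamine fluorescence; potency is read from the fitted curve at half-maximal effect; 0% = enzyme reaction without inhibitor and -100% = no enzyme wells; top concentration of the series not given in the record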
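Reaction rates are the 30-min fluorescence difference (ex 525, em 598 nm) in wells containing 15 nM Sfp, 5 uM rhodamine-CoA and 12.5 uM BHQ-2-YbbR at pH 7.6 with 10 mM MgCl2.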
Menin-MLL FL inh: inhibitors of human menin-MLL interaction, wild-type MLL peptide. Fluorescence polarization, fluorescein-MLL peptide displacement from menin. FP activity change, % at 61.4 µM. 290,000 tested, under 10 active; inconclusive = falling polarisation curve, or a change in total fluorescence; inactive = total fluorescence flat and polarisation flat or rising; no compound was filed as active; the % refers to the polarisation; negative = inhibition;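 also: % of control where 0% means no effect; inhibitors lower the polarisation; unlabelled MLL peptide was the positive control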
ClpP mod: qHTS Assay for Activators of ClpP; ATP-dependent Clp protease proteolytic subunit (Bacillus subtilis (strain 168)), P80244; purified B. subtilis ClpP, FRET peptide cleavage, 20 min; Potency, µM (highest dose often 57.5 µM), for inactives: at the top dose activity change, negative = active; 340,000 tested, 1.9% active; AID 651965, 2013; active = well fitted falling curve with a large enough effect; inconclusive = small, poorly fitted or top-dose-only effect; inactive = no such curve, though single readings can be large or run the other way; also: potency is read from the fitted curve at half-maximal effect; the source files actives as falling curves though it sought activators and does not explain the sign; nearly all actives have a fitted effect of over 65% in size; many hits overshoot -100%
Target sequence (P80244 whole entry, looked up): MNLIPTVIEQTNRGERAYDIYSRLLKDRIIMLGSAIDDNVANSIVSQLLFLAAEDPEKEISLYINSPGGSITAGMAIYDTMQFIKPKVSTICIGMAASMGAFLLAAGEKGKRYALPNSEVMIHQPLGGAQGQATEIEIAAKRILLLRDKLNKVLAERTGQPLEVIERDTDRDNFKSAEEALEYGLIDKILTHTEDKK
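FRET quenching reversal measured ClpP activation: 10 microg/mL B. subtilis ClpP at pH 8 with the FRET-FV decapeptide, read at 430 nm after 320 nm excitation. The 20-min minus 0-min signal was scaled between DMSO/no-enzyme wells and ADEP (5.8 microM final).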
PINK1 modulator: modulators of PINK1 expression; PINK1 immunofluorescence, high-content cytometry, 24 h; Potency, µM (titrated, usually from 76.6 µM), for the others: top-dose activation (PINK1 increase), hits mostly activators; 410,000 tested, 0.2% active; active = well fitted activation curve with a large enough effect; inconclusive = small, poorly fitted or top-dose-only effect; inactive = flat fitted curve, though single readings scatter; cell line not stated here;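 also: potency is read from the fitted curve at half-maximal effect; % of control where 0% means no effect; nearly all actives have a fitted effect of over 65% in size; a mitochondrial uncoupler was the plate control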
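Cells are seeded, rested 12 hours, then given compound at five concentrations or DMSO for 24 hours. After fixation, blocking and antibody staining, PINK1 amount and mitochondrial localization are scored; CCCP serves as control.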
gsp agonist: gsp mutant agonism | gsp mutant cells, cAMP HTRF, 30 min; control for the full effect not named in the record | 340,000 tested, 0.13% active | AID 624287 | Potency, µM (titrated, usually from 76.9 µM), for inactives: at the highest dose activation (cAMP increase), usual class: activators; active = well fitted activation curve with a large enough effect; inconclusive = small, poorly fitted or top-dose-only effect, or another doubt; inactive = no such curve, though single readings can be large or run the other way; cell line not stated here;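 also: phosphodiesterase inhibitor Ro 20-1724 added with compounds to block cAMP breakdown; potency is read from the fitted curve at half-maximal effect; nearly all actives have a fitted effect of over 60% in size; about a fifth of the inactives were tested at one dose only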
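Cells stably selected in G418 were plated at 2000/well, grown 16-24 hr, then given compounds in DMSO with the PDE inhibitor […] (300 uM solution added) for 30 min at 37C; cAMP was read by HTRF.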
D2 agonist: human D2 receptor agonism in beta-arrestin assay | activation, % (no concentration beside the values) | 360,000 tested, 0.084% active | P14416 | DiscoveRx PathHunter D2 beta-arrestin, luminescence, 90 min; 100% = 57 uM dopamine signal; in the data active = activation above about 40%; inconclusive = about 15% to 40%; inactive = below about 15%; also: compound concentration not given in the record; the text of the record calls up to 30% inactive
Target sequence (P14416 whole entry, looked up): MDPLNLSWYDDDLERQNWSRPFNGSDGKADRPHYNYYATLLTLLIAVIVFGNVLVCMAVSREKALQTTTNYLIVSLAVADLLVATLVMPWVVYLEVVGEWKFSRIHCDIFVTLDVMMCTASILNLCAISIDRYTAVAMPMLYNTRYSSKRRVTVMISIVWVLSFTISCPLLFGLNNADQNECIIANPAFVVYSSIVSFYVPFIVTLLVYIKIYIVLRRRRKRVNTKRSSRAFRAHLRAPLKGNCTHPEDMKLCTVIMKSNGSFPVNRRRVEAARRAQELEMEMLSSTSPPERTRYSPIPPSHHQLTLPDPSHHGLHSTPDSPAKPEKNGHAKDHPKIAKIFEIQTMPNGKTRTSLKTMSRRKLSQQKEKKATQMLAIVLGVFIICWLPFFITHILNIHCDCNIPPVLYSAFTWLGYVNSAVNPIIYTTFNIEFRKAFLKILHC
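Agonist mode: compounds alone added to overnight-plated D2 PathHunter cells for 90 min at 37 C, with 57 uM final dopamine (EC100) defining full response. Beta-arrestin recruitment detected by chemiluminescent reagent, read after 1 h at ambient temperature.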
* = called active by the depositor; ? = inconclusive; . = no result given; & = joins results of further samples; [ ] = another dose, or the depositor's remark.

SMILES	gsp antag	Sfp PPTase inh	Menin-MLL FL inh	ClpP mod	PINK1 modulator	gsp agonist	D2 agonist
COc1ccc(-c2nc(C#N)c(NCc3ccc(F)cc3)o2)cc1OC	5.2%	-13.3%	3.8	-10.6%	1.6%	-11.8%	0.5
Cn1ccc(NC(=O)Nc2ccc(Cl)cc2Cl)n1	-1.6%	-1.5%	1.7	-0.2%	-1.1%	-2.0%[15.4 µM]	-4.7
O=C(CN(C(=O)c1csnn1)c1ccc(Cl)cc1)NC1CCCC1	5.1%	10.8%	5.1	.	-0.6%	15.4%	-0.2
CCc1nnc(NC(=O)C2CC(=O)N(C3CCCCC3)C2)s1 (stereo not drawn)	10.2%	0.5%	0.8	-1.1%	2.9%	15.4%	0.4
O=C1NCCN(Cc2ccc(F)cc2)C1CC(=O)N1CC=C(c2ccccc2)CC1 (stereo not drawn)	4.6%	-13.1%	-12.2	.	3.9%	7.5%[15.4 µM]	8.1
O=C(O)c1ccc(-c2nnc(-c3ccc([N+](=O)[O-])cc3)o2)cc1	3.3%	-2.6%	-0.7	1.8%	2.2%	-23.9%	-3.0
O=C(CN1C(=O)NC(CCc2ccccc2)C1=O)N1CCCCCC1 (stereo not drawn)	0.8%	.	.	0.7%	-1.6%	-42.1%[inhibitor]	-5.1
COc1ccc2c(c1)c(C(=O)O)c(C)n2CCc1ccc(OC)c(OC)c1	-9.5%	15.5%	-1.2	.	1.3%	10.1%	-2.2
C#CCOCCOCCOCCNc1nc(N2CCN(C(=O)[C@H](CC(N)=O)n3cc(C(N)[C@@H](C)CC)nn3)CC2)nc(N2CCN(C(=O)[C@H](CCCCN)n3cc([C@@H](N)CC(N)=O)nn3)CC2)n1 (stereo partly drawn)	7.0%	.	.	-1.2%	-0.4%	.	-2.2
CC(=O)N1N=C(c2ccc(C)cc2)OC1c1ccc(Br)cc1 (stereo not drawn)	-3.4%	10.2%	0.9	.	3.5%	21.6%[15.4 µM]	-0.8
COc1ccc(Br)cc1C1NC(=O)c2c(sc3c2CCN(C)C3)N1 (stereo not drawn)	7.2%	7.8%	?	-15.8%	0.8%	3.8%	-0.1
Cc1ccc(C)c(S(=O)(=O)N2CCCC2CNC(=O)C(=O)NCc2ccccc2)c1 (stereo not drawn)	-2.7%	.	.	-0.7%	0.4%	-1.9%	-1.4
CSCCC(C(=O)N(C)CC(=O)Nc1cccc(F)c1)N1C(=O)c2ccccc2C1=O (stereo not drawn)	1.4%	.	.	-3.7%	1.8%	13.5%	-1.1
O=C(/C=C/c1ccc(Br)cc1)N1CCN(c2cccc(C(F)(F)F)c2)CC1	-7.0%	?	-2.1	-0.7%	19.7%	-33.8%[inhibitor]	1.2
O=C(Cc1cc2ccccc2o1)NCc1ccc(F)cc1	6.7%	21.4%	-0.9	3.5%	7.8%	5.9%	11.7
COc1cc(OCC(=O)NC(C)C)cc2c1C(=O)O[C@@H](C)CCCC(=O)CCCCC2	-5.4%	7.7%	3.9	1.6%	8.0%	-6.0%	0.6
CCCCn1c(N)c(N(C)C(=O)c2cccc(-n3cnnn3)c2)c(=O)[nH]c1=O	2.0%	.	.	-1.6%	-1.8%	3.5%	9.0
O=S(=O)(c1ccc(Cl)cc1)N1CCSC1c1ccco1 (stereo not drawn)	4.6%	-15.4%	-0.4	-1.2%	0.3%	-30.3%[inhibitor]	-0.7
CCOC(=O)c1cccc(NC(=O)C2CCCN2S(=O)(=O)c2cccc3cccnc23)c1 (stereo not drawn)	?	3.0%	0.1	1.5%	5.5%	-8.3%	-5.5
COc1ccc(OC)c(NC(=O)c2ccc(OC3CSC3)cc2)c1	-6.9%	9.6%	-9.3	-2.0%	-0.1%	9.5%[15.4 µM]	-6.3
Cc1onc(-c2ccccc2)c1C(=O)Nc1ccc(S(=O)(=O)NC(C)(C)C)cc1	-2.5%	8.1%	-3.4	.	0.9%	-24.7%[15.4 µM]	-3.2
O=c1c2cn(Cc3ccccc3)c3ccccc3c-2nn1Cc1ccc(F)cc1Cl	2.0%	17.1%	5.8	.	3.9%	15.1%	-3.8
CC12CCC(C(=O)N3CCN(Cc4ccccc4)CC3)(OC1=O)C2(C)C (stereo not drawn)	7.0%	15.1%	-1.5	-2.7%	-6.3%[38.3 µM]	1.8%	2.2
Cn1cccc1Cc1nnc(SCC(=O)N2CCCCCC2)n1CCc1ccccc1	0.9%	-8.6%	0.7	2.7%	0.1%	-50.5%[inhibitor]	0.3
Cc1cc(C)c2nc(NC(=O)c3ccco3)sc2c1	-8.7%	6.8%	-2.5	-4.4%	8.2%	16.0%	-5.0
C=CCOc1ccc(Br)cc1CNC(C)(C)CO	9.9%	14.9%	0.8	-2.5%	0.1%	?	-0.7
Cc1ccc(Oc2ccc(NC(=O)CSc3n[nH]c(N)n3)cc2)cc1	15.9%	-22.0%	5.4	-0.9%	2.7%	-43.9%[inhibitor]	1.5
O=C(CN1C(=O)NC2(CCCC2)C1=O)NC(c1ccccc1)c1ccccc1	6.3%	.	.	.	2.1%	-9.9%	0.2
CN1CCN(C2=Cc3ccc(Cl)cc3Sc3ccc(F)cc32)CC1	3.4%	?	3.4	-1.3%	5.2%	-7.9%	-4.7
COc1ccc(C(C)=O)cc1CC(=O)Nc1ccc2c(c1)CCC2	5.7%	11.3%	2.6	.	1.6%	-46.2%[inhibitor]	-1.7
O=S(=O)(c1ccc(Cl)cc1)c1nc(-c2ccccc2F)oc1NCCN1CCOCC1	-18.0%	-8.5%	.	-3.2%	1.2%	-1.4%[15.4 µM]	-4.3
Cc1ccc2c(c1)sc1nc(=O)n(-c3ccc(Cl)c(Cl)c3)c(=O)n12	20.9%	3.7%	4.5	10.4%&0.1%	1.2%&0.6%	?	-3.1
CN(C)c1ccc(-c2nc(N(C)C)c3ccccc3n2)cc1	.	-24.1%	0.0	.	0.1%	.	.
O=C(NCc1ccco1)c1cnccn1	4.4%	39.8µM*	?	-3.7%	1.2%	?	-1.8
O=C1CCCc2c1sc1nc3n(c(=O)c21)CCCCC3	14.6%	-10.6%	2.3	?	-1.8%	24.9%	1.2
Cc1ccc(-c2n[nH]c(=S)n2/N=C/c2ccc(C)s2)cc1	-13.3%	-1.7%	0.7	-0.6%	5.9%	-13.0%	0.6
O=C(c1ccc(F)cc1)c1c[nH]c(C(=O)NCc2cccnc2)c1	-12.7%	14.7%	1.0	0.7%	0.9%	15.0%	-1.2
O=c1[nH]c2cc([N+](=O)[O-])ccc2c2cc(Br)ccc12	.	.	.	-0.6%	0.8%	0.6%	2.1
COc1ccc(/C=C(/C(=O)Nc2ccccc2C(=O)NC(C)C)c2ccccc2)cc1	?	17.8%	3.5	-4.8%	1.3%	-4.9%	-0.2
CCN(Cc1ccccc1)C(=O)CCCOc1ccccc1	0.4%	-2.9%	1.9	0.7%	?	-21.3%	-4.8
CC1CCc2c(sc3ncnc(SC(C)C(=O)NCC4CCCO4)c23)C1 (stereo not drawn)	-18.2%	.	.	.	2.3%	-3.1%[15.4 µM]	-2.4
O=c1cc(-c2ccc(C(F)(F)F)cc2)oc2ccccc12	19.2%	.	.	-0.5%	-0.7%	.	2.8
CCCCCSc1nnc2c(n1)OC(c1cccn1C)N(C(C)=O)c1ccccc1-2 (stereo not drawn)	?	-1.9%	4.2	1.4%	3.0%	13.4%[15.4 µM]	-9.1
CN(C)c1ccc(C(=S)N2CCCCC2)cc1	2.8%	11.9%	-8.8	.	-2.3%	18.4%	2.0
CC(=O)C1=C(C)NC2=C(C(=O)c3ccccc32)C1c1ccccc1 (stereo not drawn)	-12.3%	3.4%	2.1	.	1.2%	1.2%	-9.3
Cc1ccc(C2(c3noc(CN4C[C@@H](C)O[C@@H](C)C4)n3)CCCC2)cc1	7.0%	9.7%	-5.5	-1.1%	2.3%	1.5%	0.6
COc1ccc(Cl)cc1NC(=O)CCN1C(=O)NC(C)(C)C1=O	18.3%	.	.	.	0.8%	-5.5%[15.4 µM]	1.1
CCOC(=O)c1sc2nc(SC)nc(-c3ccccc3)c2c1N	24.0%	17.0%	-2.6	-2.0%	22.9%	-4.0%	-3.4
CCSc1nnc(NC(=O)[C@@H](NC(=O)c2cccc(C)c2)C(C)C)s1	-30.6%	2.4%	8.1	-1.5%	2.4%	21.7%	-5.3
Cc1nc2ccc([N+](=O)[O-])cc2c(=O)n1Cc1ccc(Cl)cc1	-3.1%	5.4%	0.1	1.4%	3.5%	-8.0%	-1.8
Going on with the list.
SMILES	gsp antag	Sfp PPTase inh	Menin-MLL FL inh	ClpP mod	PINK1 modulator	gsp agonist	D2 agonist
CC[C@@]1(C(=O)OC)N[C@H](CN(C)C(=O)c2ccccc2)[C@@H]2C(=O)N(Cc3ccccc3)C(=O)[C@@H]21	-5.2%	.	.	0.6%	-0.4%	.	-0.3
O=C(O)C1CCCN(CCC=C(c2ccccc2)c2ccccc2)C1 (stereo not drawn)	-3.6%	8.3%	-2.7	-1.3%	0.8%	.	-4.3
CCC(=O)Nc1c2c(nn1-c1ccc(C)cc1)CS(=O)(=O)C2	0.8%	21.9%	2.6	1.0%	0.5%	-6.4%	4.1
O=C(Nc1ccccc1N1CCOCC1)c1ccc2c(c1)OCCO2	-17.5%	19.3%	.	-0.9%	0.1%	26.7%	-0.5
NC(=O)c1ccccc1NC(=O)c1ccoc1	3.0%	0.2%	.	-16.1%	-0.4%	1.4%	-1.6
CC(Sc1nc2ncc(Cl)cc2[nH]1)C(=O)Nc1ccc(C(N)=O)cc1 (stereo not drawn)	-8.4%	.	.	0.7%	2.7%	-38.4%[inhibitor]	-3.6
Cc1ccc(-n2c(SCC(=O)NCc3ccco3)nc3sc(C)c(C)c3c2=O)cc1	0.9%	-3.0%	3.5	-27.3%	5.6%	?	-3.9
COc1ccccc1/C=C1\SC(=O)N(CCC(=O)NCCCn2ccnc2)C1=O	6.1%	3.3%	.	-1.9%	1.4%	-1.8%	-2.7
COc1ccc(C(CNC(=O)CNC(=O)c2ccccc2)N2CCCC2)cc1 (stereo not drawn)	5.6%	.	.	-3.1%	0.5%	8.5%	-0.6
O=C(c1ccc(CSc2ccccc2)cc1)N1CCCCCC1	4.4%	-17.3%	2.9	3.9%	-0.4%	-1.6%	2.4
